Sa RN4220 lethal: S. aureus RN4220 growth inhibition | OD600, 16 h | inhibition, % (no concentration beside the values) | 330,000 compounds, 0.33% hits | AID 1259311;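 active means z-score of -3 or lower and OD600 up to 0.18 on both plates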;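 further: plate controls were untreated cells for no effect and reference antibiotic for full effect; stock transfer was 100 nL into about 80 µL; one replicate is shown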
Sa ugtP lethal: growth inhibition of S. aureus ugtP deletion strain. AID 1259309. growth inhibition, % (concentration not given with the values). 330,000 compounds, 0.54% hits. S. aureus RN4220 ugtP deletion, OD600 growth, 16 h; some inactives read as strong as hits;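 active means z-score under -3 and OD600 up to 0.15 on both plates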;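 further: plate controls were untreated wells for no effect and antibiotic for full effect; wells of about 80 µL received 100 nL stock; the first replicate is given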
BJeLR viability: kills HRASV12-expressing BJeLR cells; inhibition, % (no concentration beside the values); 300,000 compounds, 0.17% hits; BJeLR (HRASV12) viability, CellTiter-Glo ATP luminescence, 48 h; reference of the scale not given here;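 active means replicate mean above 50%; inconclusive means above 50% but judged a plate artefact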;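 further: 50 nL library stock added to about 25 µL; numbers are from one replicate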
Mtb hypoxia inh: Mtb hypoxia fluorescent reporter inhibition | 300,000 compounds, 0.1% hits | M. tuberculosis hypoxia-regulated fluorescent reporter, fluorescence | fluorescence inhibition, % (no concentration beside the values);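 active means 35 to 45% if threefold the growth effect, above 45% if 1.5-fold the growth effect; inactive means the rest, general growth blockers included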;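 further: wells of about 50 µL received 100 nL stock; 0% = vehicle wells and 100% = reference inhibitor wells; whole bacteria with a GFP reporter of the hypoxia response; strong numbers were not always called active; many hits fall short of the cut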
PrP UTR inh: suppresses PrP 5' UTR mRNA reporter expression | 340,000 compounds, 0.35% hits | AID 488862 | cell-based PrP 5' UTR mRNA reporter, plate reader | inhibition, % (concentration not given with the values);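 active means every replicate at 50% or more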;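 further: 0 = median of the neutral control wells; tested in H4 reporter cells; numbers are from one replicate; inactives centre near -14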
Autofluor counter: counter-screen for toxin protease inhibitors: compound fluorescence | fluorescence intensity (no concentration beside the values) | AID 624483 | compound autofluorescence counterscreen, microsphere flow cytometry; active compounds read high | 360,000 compounds, 3.1% hits;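 active means at least 3 SD above the mean of all compounds, about 16000 in these data; inconclusive means too few beads counted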;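 further: 100 nL of 1 mM stock went into each well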
Mtb hypoxia inh growth: second read-out of Mtb hypoxia inh, no call of its own (marks repeat the call); growth inhibition, %; measured here: M. tuberculosis growth (absorbance);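 0% = vehicle and 100% = reference antibiotic; read after six days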
* = called active by the depositor; ? = inconclusive; . = not tested or not shown.

entry | mol | Sa RN4220 lethal | Sa ugtP lethal | BJeLR viability | Mtb hypoxia inh | Mtb hypoxia inh growth | PrP UTR inh | Autofluor counter
1 | CN1C(=O)CSc2ccc(NC(=O)N3CCc4ccccc43)cc21 | 6.9 | 1 | -1 | 8 | 12 | -91 | 13293
2 | COc1cccc2sc(Nc3nnc(-c4ccccc4Cl)o3)nc12 | 4.6 | 12 | 20 | -7 | 2 | -108 | 4104
3 | COc1cc(/C=C/c2nc3ccccc3c(=O)[nH]2)cc(Br)c1O | 2.7 | -3 | 3 | 0 | 12 | -5 | 4351
4 | COc1ccc(C2CC(=O)C(C3NCCc4ccccc43)=C(O)C2n2cncn2)cc1 (configuration not stated) | 5.3 | 6 | -37 | 6 | -3 | -4 | 3241
5 | COCCSc1ccccc1C(=O)NCc1ccc(S(N)(=O)=O)cc1 | 2.0 | 4 | 0 | 14 | 6 | -25 | 23008*
6 | O=C(CN1C(=O)NC2(CCCCC2)C1=O)Nc1ccc(F)cc1 | 9.5 | 6 | 0 | -2 | -12 | -34 | 4619
7 | CCCc1cc(=O)[nH]c(SCC(=O)Nc2nonc2N)n1 | 5.2 | 3 | 4 | 2 | 9 | -18 | 7644
8 | O=C(O)CCS(=O)(=O)Cc1ccccc1F | 3.5 | -1 | -11 | -12 | 1 | 5 | 11176
9 | COc1cc(OC)cc(C(=O)N(CN2CCCC2=O)c2ccccc2OC)c1 | 4.2 | 7 | 2 | 10 | 1 | -12 | 18589*
10 | NC(=O)c1ccc(OCCC(O)N2CC=C(c3ccc(F)cc3)CC2)cc1 (configuration not stated) | 6.9 | 4 | . | 10 | 3 | -16 | 4509
11 | O=c1c([N+](=O)[O-])c(O)c2ccccc2n1Cc1ccccc1 | . | . | -12 | . | . | -8 | 3761
12 | CC(C)=CCSc1nnc(CCNC(=O)OC(C)(C)C)o1 | 0.9 | 4 | -1 | 2 | 0 | -22 | ?
13 | O=C(COC(=O)c1ccc(S(=O)(=O)Nc2ccccc2)cc1)NCC1CCCO1 (configuration not stated) | 2.4 | 3 | 1 | 0 | -7 | -20 | 4246
14 | Cc1cccc(N2C(=O)CCC2=O)n1 | 3.7 | 2 | -5 | 3 | 5 | -24 | 2564
15 | Cc1cc(NC(=O)COc2ccccc2C#N)no1 | 3.9 | -1 | . | 6 | -4 | -43 | 3901
16 | CC(=O)Nc1ccc(OCC(O)Cn2ccnc2)cc1 (configuration not stated) | 7.5 | 14 | -4 | -3 | -2 | -14 | 2604
17 | CC(=O)C1=C(O)C(=O)N(c2cccc(Br)c2)C1c1ccc(Br)cc1 (configuration not stated) | 26 | -13 | 8 | 4 | 8 | -22 | 3605
18 | CCn1c(=N)c(C(=O)NCCCOC)cc2c(=O)n3cccc(C)c3nc21 | -0.3 | 2 | . | . | . | -5 | 4148
19 | Cc1ccc2c(CN3CCCc4ccccc43)cc(=O)oc2c1C | -1.8 | 7 | 1 | 8 | 0 | -25 | 10285
20 | Cc1ccsc1/C=N/Nc1nc2ccccc2[nH]1 | . | . | 5 | . | . | -69 | 2467
21 | CN(c1cccc(Cl)c1)S(=O)(=O)c1cccc(C(=O)NN2CCOCC2)c1 | -1.1 | -1 | . | 11 | 10 | -14 | 8844
22 | O=C(NCc1ccncc1)C(=O)NCC1OCCCN1S(=O)(=O)c1ccc(F)cc1 (configuration not stated) | 3.1 | 11 | -14 | 15 | -2 | -11 | 6408
23 | CC(C)c1ccc(NC(=S)NNC(=O)C2CC2)cc1 | 5.6 | 3 | 6 | 14 | 8 | -9 | 4142
24 | CCOC(=O)c1c(NC(C)=O)sc2c(O)c(Br)ccc12 | 17 | 3 | -14 | 5 | 10 | -8 | 4167
25 | CCCCn1c(=O)c(CCC(=O)OCC(=O)Nc2ccc(F)c(Cl)c2)nc2ccccc21 | -0.6 | 1 | 6 | 5 | 6 | -6 | 2481
26 | O=C(/C=C\c1ccco1)Oc1cccc2cccnc12 | 6.6 | -3 | -7 | 2 | -4 | -29 | 2150
27 | CCc1ccccc1NC1c2ccccc2C(=O)N1c1cc(C)ccn1 (configuration not stated) | 7.4 | 3 | -21 | 1 | 4 | -35 | 6434
28 | Cc1ccc(Cl)cc1NC(=O)c1cnn2c1NC(c1ccco1)CC2C(F)(F)F (configuration not stated) | 2.1 | -17 | 7 | 6 | 2 | -44 | 9880
29 | O=C1OC(c2ccccc2)=C/C1=C/c1cccs1 | 2.9 | 5 | -1 | 7 | 8 | -9 | 2649
30 | Cc1ccc(N2CC(C(=O)OCC(=O)c3ccc(C)c([N+](=O)[O-])c3)CC2=O)cc1 (configuration not stated) | 1.8 | 5 | 2 | 6 | 7 | -35 | 4958

Next section, starting with the last 3 of the part before.
entry | mol | Sa RN4220 lethal | Sa ugtP lethal | BJeLR viability | Mtb hypoxia inh | Mtb hypoxia inh growth | PrP UTR inh | Autofluor counter
28 | Cc1ccc(Cl)cc1NC(=O)c1cnn2c1NC(c1ccco1)CC2C(F)(F)F (configuration not stated) | 2.1 | -17 | 7 | 6 | 2 | -44 | 9880
29 | O=C1OC(c2ccccc2)=C/C1=C/c1cccs1 | 2.9 | 5 | -1 | 7 | 8 | -9 | 2649
30 | Cc1ccc(N2CC(C(=O)OCC(=O)c3ccc(C)c([N+](=O)[O-])c3)CC2=O)cc1 (configuration not stated) | 1.8 | 5 | 2 | 6 | 7 | -35 | 4958
31 | Cc1ccc(Cn2ncc3c(NN)ncnc32)cc1 | 6.7 | 15 | 8 | 8 | 7 | -15 | 3312
32 | CCNC(=O)CC1C(=O)N(c2ccccc2)C(=O)N1CCc1ccc(OC)cc1 (configuration not stated) | 1.9 | 3 | -9 | 4 | 3 | -32 | 10588
33 | COc1ccc(C=NN2C(=O)C3C4C=CC(CC4)C3C2=O)c(OC)c1 (configuration not stated) | 3.6 | 3 | . | -6 | -1 | . | .
34 | O=S(=O)(C=Cc1ccccc1)Nc1ccc(N2CCOCC2)cc1 | 5.4 | 9 | . | 6 | 4 | . | .
35 | O=C1CCCC2=C1C(c1ccncc1)c1c(nc(SCc3ccccc3)[nH]c1=O)N2 (configuration not stated) | 3.5 | 18 | 2 | 0 | 1 | -23 | 4106
36 | O=C(NN=Cc1coc2ccc(Cl)cc2c1=O)c1ccc(O)cc1 | 2.5 | 5 | . | 13 | 9 | . | .
37 | COc1cc(O)cc2c1C(=O)OC(C)CCCC(=O)CCCC=C2 (configuration not stated) | -1.6 | 5 | . | 9 | 13 | . | .
38 | Cc1cc(C)c(C)c(S(=O)(=O)NCC(=O)O)c1C | -2.2 | 2 | -8 | . | . | -9 | 4103
39 | CCNC(=S)NNC(=O)C1CCCCC1 | 1.6 | 1 | -5 | 5 | -2 | 0 | 3247
40 | CC(=O)Nc1ccc(N(CC(=O)NC2CCCC2)C(=O)CCC(=O)Nc2cc(C)on2)cc1 | 2.5 | 0 | -3 | 0 | 11 | -5 | 3684
41 | Cc1csc(N/N=C/c2ccccn2)n1 | . | . | 11 | . | . | -5 | 2545
42 | Cc1cc(C)n(CC(=O)N/N=C/c2cc([N+](=O)[O-])ccc2O)n1 | . | . | 9 | . | . | -13 | 2369
43 | FC(F)(F)c1cccc(Sc2nc(-c3ccccc3)nnc2C(F)(F)F)c1 | -1.8 | 2 | -4 | . | . | -5 | 5571
44 | Cc1c(C(=O)N2CCC3(CC2)OCCO3)oc2ccc(S(=O)(=O)N3CCCCC3)cc12 | 6.9 | 11 | -4 | -2 | -4 | -26 | 2169
45 | O=C(/C=C/c1ccccc1)NC1CC2CCC1C2 (configuration not stated) | 1.9 | -9 | 4 | 10 | 21 | -34 | 2435
46 | COc1ccc(S(=O)(=O)Nc2ccc3c(c2)C(=O)N([C@H](C)CO)C[C@H](C)[C@@H](CN(C)S(C)(=O)=O)O3)cc1 | 3.9 | 17 | . | 3 | 1 | -22 | 2998
47 | COC(=O)CSc1nnc(-c2ccc(S(=O)(=O)N3CCCC3)cc2)o1 | 1.7 | 1 | 0 | 5 | 9 | -14 | 6003
48 | CC(O)[C@H](NC(=O)C1CCN(C(=O)[C@H](Cc2ccccc2)NC(=O)OC(C)(C)C)CC1)C(=O)O (some centres not stated) | -2.1 | -1 | 2 | -8 | 5 | -5 | 3649
49 | Cc1noc(/C=C/c2ccccc2F)c1S(=O)(=O)N1CCC(C(=O)N2CCN(C)CC2)CC1 | -1.3 | 3 | -1 | 12 | 8 | 5 | 5382
50 | FC(F)(F)c1ccccc1NC1=NCCC1 | 0.7 | 2 | -4 | -4 | 6 | -20 | 3756
51 | Cc1cc(C(=O)CSc2nnc(N)s2)c(C)n1Cc1ccco1 | -2.2 | -12 | 7 | -24 | -1 | -64 | 3249
52 | CC(NC(=O)CN1C(=O)NC(Cc2ccccc2)(Cc2ccccc2)C1=O)C12CC3CC(CC(C3)C1)C2 (configuration not stated) | -0.5 | 13 | 2 | . | . | -18 | 3466
53 | Cc1nc(NC(=O)C2CC2)sc1C(=O)N(C)C | 1.4 | 0 | -3 | 8 | 0 | 11 | 8629
54 | O=C(Nc1nnc(SCc2ccc(F)cc2)s1)c1cnccn1 | 3.4 | -6 | 2 | -1 | -1 | -12 | 4438
55 | COc1cccc(C=Nc2cc(C)on2)c1O | 4.8 | 3 | -6 | 9 | 13 | -25 | 3790
56 | CC1NCCc2cc(O)c(O)cc21 (configuration not stated) | 6.0 | -5 | . | -5 | -4 | . | .
57 | O=C(NCCCN1CCN(c2ccc(F)cc2)CC1)c1cccc(N2CCCC2=O)c1 | -2.2 | 8 | 2 | 6 | -5 | -7 | 2326
58 | COCc1cc(C2SCC(=O)Nc3c2c(=O)[nH]n3C(C)C)ccc1OC (configuration not stated) | 1.1 | -4 | -1 | . | . | -8 | 6210
59 | CC1(NC(=O)Nc2ccccc2)CCS(=O)(=O)C1 (configuration not stated) | 1.5 | 0 | -2 | 0 | 3 | . | 3350
60 | C=C1c2ccccc2O[C@H](C(=O)OCC)[C@H]1OC | 3.8 | -2 | . | -3 | 5 | -15 | 3603
61 | CC1CC=CC2C1C(=O)N(Cc1ccccc1)C2c1ccc2ccccc2c1 (configuration not stated) | -3.2 | -16 | . | 2 | 7 | . | .
62 | CCCCNc1c([N+](=O)[O-])c(=O)n(C)c2ccccc12 | 8.9 | 2 | 4 | 2 | 4 | -19 | 4399
63 | Cc1cc(NC(=O)CN2C(=O)NC3(CCCCC3C)C2=O)no1 (configuration not stated) | -0.8 | 2 | 2 | 11 | 3 | -18 | 2449
64 | COCC(C)n1c(C)cc(C(=O)COC(=O)c2c(NC(C)=O)sc(C)c2C)c1C (configuration not stated) | 1.2 | 0 | 9 | 7 | 8 | 16 | 3376
65 | Cc1ccc(C2CCN(C(=S)Nc3cccc(C)c3)C2)cc1 (configuration not stated) | -0.3 | -5 | -3 | -8 | -9 | -13 | 4607
66 | COc1ccccc1OCCSc1nc2ccccc2n1CC(O)CO (configuration not stated) | 2.2 | 13 | 0 | 20 | 13 | -25 | 4050
67 | CC(=O)c1sc(NC(=O)COc2ccc(Br)cc2)nc1C | 6.3 | 7 | 6 | 18 | 10 | -29 | 2731
68 | Cc1cccc(NC(=O)CSc2nnc(NC(=O)C3CCC3)s2)c1 | 2.9 | 12 | 9 | 16 | 3 | -23 | 3865
69 | O=C1CCCN1c1ccc(S(=O)(=O)N2CCN(c3ccccc3)CC2)cc1 | 3.8 | -3 | 0 | 2 | -4 | -23 | 5271
70 | Cc1ccc(NC(=O)c2nnn(-c3ccc4c(c3)OCCO4)c2N)cc1 | -2.2 | 19 | -8 | 2 | 10 | -65 | 3972
71 | Cc1cccc(CN2CCN(C(=O)CCl)CC2)c1 | 10 | -4 | 5 | 25 | 18 | -15 | 2196
72 | CCOC(=O)CN1C(=O)S/C(=C/C=C/c2ccc(N(C)C)cc2)C1=O | 1.0 | -1 | 11 | 9 | 5 | -21 | 3403
73 | Cc1ccc(N=Cc2cc(Br)cc(Cl)c2O)cc1 | -1.5 | 13 | 5 | 9 | 6 | 3 | 2229
74 | COc1ccc(C=NNC(=O)c2cc(O)c(O)c(O)c2)cc1CN1CCN(c2ccc(F)cc2)CC1 | 8.5 | -16 | . | 5 | 5 | . | .
75 | O=C(c1c(F)cccc1F)N1CCN(c2ncccn2)CC1 | 6.0 | -5 | -1 | 7 | 9 | -12 | 10159
76 | COc1cccc(-c2ccc(NC(=O)C3CCCN(Cc4cnn(C)c4C)C3)cc2)c1 (configuration not stated) | -6.5 | 0 | 1 | -1 | 9 | -31 | 5861

Source: PubChem BioAssay

An unsorted share of the library; any-hit rate near 4%.
